# Assay outcomes as filed in PubChem.
# T cruzi inh: T. cruzi replication inhibition | T. cruzi beta-gal in NIH3T3, luminescence, 90 h | inhibition, % (test concentration not listed) | 1.4% of 300,000 active | AID 1885;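 active means mean inhibition across valid replicates above about 55%, limit read from the data; inconclusive means mean below that limit but half or more replicates reach it; inactive means mean below it, under half of replicates reach it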;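 further: signal also drops with host cell toxicity which is not excluded here; 0% = plate median of DMSO wells and 100% = zero luminescence signal; higher percent means less beta-gal luminescence so fewer parasites; stock transfer was 50 nL into about 50 µL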
# RanGTP-Impb inh: disruptors of Ran-importin-beta complex formation – biochemical, FRET, CFP-Ran, YFP-importin-beta, homogeneous, primary screen; 1.1% of 300,000 active; inhibition, % (no concentration beside the values); cell-free CFP-Ran/YFP-importin-beta FRET ratio;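 active means most replicates above 15%; inconclusive means exactly half above 15%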;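 further: 0% = DMSO wells and 100% = Ran loaded with GDP instead of GTP; wells of about 40 µL received 100 nL stock; the first replicate is given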
# rRNA inh HTS: selective bacterial rRNA inhibition in E. coli; 1.6% of 350,000 active; E. coli WT GFP vs humanized-ribosome RFP mutants, fluorescence, 24 h; active compounds read low; DMSO median 0, no signal -100; GFP signal change (wild-type ribosome), % (concentration not given with the values);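 active means significant combined selectivity score with lowered wild-type GFP, culture density cut under 30%, mutant RFP and density less affected; inactive means any of these conditions unmet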; further: one replicate is shown; some compounds called inactive have numbers as strong as hits
# Calb FLC: affects C. albicans growth with fluconazole; 0.57% of 300,000 active; growth inhibition, % (test concentration not listed); C. albicans CaCi-2 (fluconazole-resistant clinical isolate) + fluconazole, Alamar Blue growth, 48 h;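 active means most replicates above 75%; inconclusive means exactly half above 75%; inactive means most below 75%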;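 further: all wells also contain fluconazole at 8 µg/ml as a sub-toxic cotreatment; 0% = median of DMSO wells and 100% = median of geldanamycin control wells; wells of about 8 µL received 7.5 nL stock; the first replicate is given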
# Beta cell apopt: blocks beta cell apoptosis; 0.8% of 300,000 active; protection from apoptosis, % (concentration not given with the values); AID 435005; INS-1E cytokine-induced death, ATP luminescence, 48 h; percent of positive-control rescue, neutral wells zero;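 active means all replicates at 75% or more, or half of them and the mean; inconclusive means half reach 75% but not the mean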;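 further: 0% = cytokine-treated negative control wells and 100% = positive control rescue; higher means more ATP so stronger rescue from cytokine killing; wells of about 40 µL received 100 nL stock; the first replicate is given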
# FGF22 binding: binders of recombinant human FGF22 by thermal shift | Q9HCT0 | SYPRO orange fluorescence; percent of sucrose octasulfate shift, DMSO zero | calls only at 9.99 µM | 1.5% of 340,000 active;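 active means melting point raised past a set limit in the mean and every replicate; inconclusive means no clear call; three in four hits are not shown here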
# Target sequence (Q9HCT0 whole entry, looked up): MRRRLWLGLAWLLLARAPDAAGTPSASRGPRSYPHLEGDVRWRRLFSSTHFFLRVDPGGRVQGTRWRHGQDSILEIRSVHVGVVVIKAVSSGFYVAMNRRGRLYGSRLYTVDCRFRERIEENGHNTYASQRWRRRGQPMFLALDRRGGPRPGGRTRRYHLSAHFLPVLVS
# MLL AF4-AF9 inh: inhibitors of human MLL-AF4/AF9 interaction | inhibition, % at 10 µM | 0.47% of 350,000 active | P42568 | AlphaScreen, biotin-AF4 peptide binding to FLAG-AF9 | AID 651704;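 active means every replicate reaching a set inhibition limit, whatever the replicate mean, cut at about 25% in these data; inconclusive means mean inhibition reaches that limit but some replicates miss it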;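 further: 0% = plate neutral control median and 100% = total signal loss; the record names both 10 and 1 µM as test concentration; the first replicate is given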
# Target sequence (P42568 whole entry, looked up): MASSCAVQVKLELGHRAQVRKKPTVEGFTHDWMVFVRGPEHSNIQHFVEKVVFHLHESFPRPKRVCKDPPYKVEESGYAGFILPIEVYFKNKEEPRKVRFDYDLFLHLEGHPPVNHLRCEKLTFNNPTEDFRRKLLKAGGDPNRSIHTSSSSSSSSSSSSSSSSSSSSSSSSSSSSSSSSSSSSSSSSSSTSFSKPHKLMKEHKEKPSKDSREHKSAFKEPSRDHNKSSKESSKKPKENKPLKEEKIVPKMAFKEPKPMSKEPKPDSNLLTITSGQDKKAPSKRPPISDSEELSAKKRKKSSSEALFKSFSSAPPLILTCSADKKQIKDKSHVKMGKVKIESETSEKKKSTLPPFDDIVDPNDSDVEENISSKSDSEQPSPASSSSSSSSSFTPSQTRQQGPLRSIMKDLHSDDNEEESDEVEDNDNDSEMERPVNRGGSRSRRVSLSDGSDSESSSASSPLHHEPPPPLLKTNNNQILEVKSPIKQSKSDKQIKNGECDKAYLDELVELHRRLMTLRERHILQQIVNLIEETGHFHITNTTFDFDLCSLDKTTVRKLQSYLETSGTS
# ALR inh: inhibitors of human sulfhydryl oxidase ALR. inhibition, % (no concentration beside the values). AID 485317. purified ALR, DTT oxidation, H2O2 HRP-luminol luminescence. 3.8% of 290,000 active;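 active means mean and each replicate at 75% or more; inconclusive means only one of the two met; inactive means neither met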;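 further: stock transfer was 7.5 nL into about 7.5 µL; 0% = neutral wells and 100% = wells with inactivated enzyme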
# Target sequence (P55789 whole entry, looked up): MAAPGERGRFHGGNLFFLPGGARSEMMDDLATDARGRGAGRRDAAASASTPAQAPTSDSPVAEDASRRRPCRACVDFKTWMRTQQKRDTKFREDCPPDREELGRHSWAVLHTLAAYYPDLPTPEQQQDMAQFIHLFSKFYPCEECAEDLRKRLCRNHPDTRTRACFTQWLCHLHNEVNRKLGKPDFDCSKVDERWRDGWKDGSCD
# rRNA inh HTS OD600: further read-out of rRNA inh HTS, marked with its call; OD600 change, %; measured here: OD600 growth;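 optical density of the mix in the first replicate; 0 = DMSO median and -100 = no signal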
# rRNA inh HTS RFP: also measured in rRNA inh HTS; calls as there; RFP signal change, %; measured here: RFP humanized mutant strains;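 first replicate; 0 = DMSO median and -100 = no signal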
# An asterisk follows results filed as active; i = inactive; ? = inconclusive; · = not tested or not shown. An excerpt; rates above refer to the full screens.
SMILES,T cruzi inh,RanGTP-Impb inh,rRNA inh HTS,rRNA inh HTS OD600,rRNA inh HTS RFP,Calb FLC,Beta cell apopt,FGF22 binding,MLL AF4-AF9 inh,ALR inh
C=CCNC(=O)CN1C(=O)C2C3c4ccccc4C(c4ccccc43)C2C1=O (stereo not given),0,0.2,-3,-11,-6.9,0,4,i,-2.9,-1
CCCOc1ccc(-c2nc(C#N)c(NCCCn3ccnc3)o2)cc1,43,0.5,·,·,·,-29,10,·,·,36
O=C(NCc1ccccc1)N1CCNCC1,-1,-1.8,7,9,-3.9,9,-4,i,1.4,-9
CC(=O)c1c(C)[nH]c(C(=O)COc2ccc3ccc(=O)oc3c2)c1C,6,5.1,3,9,1.6,20,-3,i,-0.9,1
C(=N\n1cnnc1)/c1ccc2ncccc2c1,-22,-0.2,·,·,·,8,2,·,·,·
O=C(Nc1ccccc1)c1ccc2snnc2c1,-4,-1.7,·,·,·,22,5,i,-0.5,-6
O=S(=O)(c1ccc(Sc2nnc3ccccn23)nc1)N1CCOCC1,3,-1.1,·,·,·,3,0,·,·,·
CCOC(=O)c1sc2nc(-c3ccccc3)ccc2c1N,3,30*,·,·,·,-3,-8,·,·,-1
Cc1cc(=O)[nH]c(SCC(=O)Nc2ccccc2[N+](=O)[O-])n1,-9,3.9,19,8,1.4,-11,-6,i,0.4,-8
CCOc1ccc(C(=O)NCC(C)CN(C)C)cc1OCC (stereo not given),-8,-1.7,·,·,·,-1,3,·,·,-9
Cc1cc(C)cc(CC2CC(=O)N(c3cc(C)ccc3C)C2=O)c1 (stereo not given),14,?,-5,7,0.3,2,-3,i,-7.6,14
Cc1cccc(C(=O)NC(C)C(c2cccs2)N2CCOCC2)c1 (stereo not given),-7,-0.9,7,1,2.1,-1,-3,i,-21,·
O=C(Nc1nnc(C2=COCCO2)o1)c1ccc(S(=O)(=O)N2CCCCC2)cc1,-8,1.2,-47,-70,-4.3,17,-5,i,3.9,9
CCOC(=O)[C@@H]1[C@H]2COc3ccccc3[C@H]2N2C(=O)N(c3ccc(C(F)(F)F)cc3)C(=O)[C@]12C,17,2.5,-51,-78,-17,13,14,i,-6.4,3
COC(=O)CN1C(C)=Nc2ccc(C)cc2C1c1ccccc1 (stereo not given),-14,1.9,3,-2,-2.1,-9,-10,i,1.3,-2
O=C(N/N=C/c1cccnc1)c1cccc(N2CCCC2=O)c1,-9,3.8,6,10,-0.3,23,·,i,-0.6,-10
Cc1ccc2c(c1)C1C[N+](C)(CC(=O)Nc3ccccc3Cl)CCC1N2C(=O)c1ccccc1Cl (stereo not given),·,·,-56,-82,-18,·,-3,i,8.1,·
O=C(NC1=NCCS1)NC12CC3CC(CC(C3)C1)C2,-13,1.9,-3,-2,-2.3,4,-7,·,·,-11
O=C(NC(=S)Nc1ccc2ncccc2c1)c1ccccc1,-1,-0.3,-21*,-10.0*,-1.5*,13,-2,i,-0.7,-19
CCn1c(C)cc(/C=C2/SC(=S)N(CC(=O)O)C2=O)c1C,5,4.9,2,5,6.9,1,-4,i,-0.1,99*
COc1ccc(N2CCN(C(=O)CSc3nc(C)cs3)CC2)cc1,-7,-1.9,5,10,3.5,0,-3,i,-13,·
CCOc1ccccc1OCCOc1ccc(F)cc1,17,3.4,·,·,·,0,1,·,-11,-2
CC(C)c1c(C(=O)N/N=C/c2ccccc2OCc2c(F)cccc2Cl)nnn1-c1nonc1N,6,-1.3,3,9,0.1,·,18,i,2.6,0
O=C(NCCO)c1nc(C(=O)c2ccccc2)c2ccccc2n1,·,·,-5,-6,3.7,·,-1,i,-4.4,16
Cc1ccc(S(=O)(=O)N2CCN(c3cc4c(cc3[N+](=O)[O-])n(C)c(=O)n4C)CC2)cc1,33,1.4,9,2,-1.4,9,3,i,12,-2
O=C(/C=C/c1cccs1)NCc1ccccc1,-8,-0.6,-6,8,-2.6,0,-5,i,2.3,-14
Cc1cc(C)n(CCNC(=O)c2ccco2)n1,5,2.4,1,3,-1.9,-2,-2,i,1.8,-3
CCc1ccccc1NC(=O)CN1C(=O)C2CCCN2c2ncc(Cl)cc21 (stereo not given),14,12,·,·,·,6,6,·,·,-6
Cc1cc(N2CCCCC2)nc2ccccc12,-3,-0.6,19,19,-1.6,8,5,i,-1.8,0
O=C(COC(=O)[C@@H]1CCCN1C(=O)c1cccs1)Nc1ccc(Br)cc1,·,·,-20,-29,-6.5,·,-5,i,-0.8,3
O=S(=O)(c1ccc(F)cc1F)N1CCCN(c2ccc(C(F)(F)F)cn2)CC1,7,-0.8,-25,-33,0.9,0,3,i,0.4,-3
CCCCCOc1ccc(NC(=O)C(=O)NCCCn2ccnc2)cc1,29,3.0,·,·,·,-1,21,·,·,16
COc1ccc(-c2cc(C(=O)NC3CCCC3)no2)cc1OC,-9,5.3,·,·,·,2,-13,·,·,-18
O=c1[nH]c(CSc2ncnc3sccc23)nc2ccccc12,-1,-2.1,5,11,-5.0,-10,-5,i,-0.6,-4
O=C(O)c1c(-c2ccccc2)c2oc3ccccc3c2[nH]c1=O,-25,5.9,2,5,-5.9,-8,-2,·,·,·
O=C(N/N=C/c1cc(Br)ccc1O)C(c1ccncc1)N1CCOCC1 (stereo not given),-11,1.2,·,·,·,20,·,·,·,0
CC(NC(=O)Cn1cc2c(n1)CCCCC2)c1ccccc1 (stereo not given),0,?,1,0,1.7,-2,-5,i,-0.5,-14
Cc1ccc(/C=C/C(=O)Nc2cc(C)on2)cc1,-30,0.6,·,·,·,6,·,·,·,-2
CCOc1ccccc1C(=O)NCCCCCC(=O)O,-13,5.8,·,·,·,6,0,·,·,-2
C(#Cc1ccccc1)C[N+]1(CC#Cc2cccc3ccccc23)CCCC1,-4,2.2,-59,-82,-22,90*,77*,i,8.9,-15
O=C(Nc1cccc(Cl)c1)Nc1ccccc1-n1ccnc1,57*,?,·,·,·,-15,-8,i,1.5,-5
O=C(NNC(=S)Nc1ccc(OC(F)F)cc1)c1cc2c(s1)CCCC2,-30,0.8,·,·,·,0,2,·,·,36
CCCC1=C(C(=O)OCC)C(c2ccncc2)n2ncnc2N1 (stereo not given),-6,-3.3,8,-3,-9.2,9,-6,i,-23,-17
CCC1(c2ccccc2)NC(=O)N(CC(=O)Nc2cc(S(=O)(=O)N3CCCCC3)ccc2N(C)C)C1=O (stereo not given),17,5.8,-8,-10,2.6,9,5,·,1.7,-25
O=C(CSc1nc2[nH]ncc2c(=O)n1-c1ccccc1)N1CCCc2ccccc21,1,-2.6,·,·,·,-9,5,·,·,7
CCOc1cc(C(=O)N(C)Cc2cc3cc(OC)ccc3[nH]c2=O)cc(OCC)c1OCC,4,0.1,·,·,·,1,3,·,·,-11
CCO[C@@H]1OC(C(=O)N2CCCCCCC2)=C[C@H](c2csc3ccccc23)[C@H]1CCCO,1,-0.4,·,·,·,-6,2,·,·,-17
CCS(=O)(=O)N1CCCC(C(=O)NCc2cccnc2)C1 (stereo not given),-20,1.2,·,·,·,2,-4,·,·,·
O=C(CSc1nnc(CNC(=O)c2ccc(F)cc2)o1)NCCc1ccccc1,-8,4.2,10,7,0.7,0,·,i,0.9,-13
COc1ccc(C2=CC3=C(Br)C(=O)C(C)(OC(=O)c4cccs4)C(=O)C3=CO2)cc1 (stereo not given),-4,-1.7,-7,4,-6.3,-2,-8,i,-1.1,·
# Following part.
SMILES,T cruzi inh,RanGTP-Impb inh,rRNA inh HTS,rRNA inh HTS OD600,rRNA inh HTS RFP,Calb FLC,Beta cell apopt,FGF22 binding,MLL AF4-AF9 inh,ALR inh
O=C(/C=C/c1ccc([N+](=O)[O-])cc1)NCCc1ccc(F)cc1,45,4.9,0,5,6.4,-13,-1,i,1.0,·
CC(=O)n1cc(/C=N/NC(=O)c2ccccc2O)c2ccccc21,-3,-0.2,-25*,-7.3*,-2.7*,-22,-6,i,-0.1,-4
O=C(NCCc1cccs1)C1CC(c2cccc(F)c2)=NO1 (stereo not given),-19,-1.1,7,14,6.9,9,-1,i,-0.8,-3
O=C1CC(C(=O)N(c2cccc(F)c2)C(C(=O)NC2CCCC2)c2ccccn2)CS1 (stereo not given),4,-1.3,·,·,·,40,-14,·,·,-1
CCOc1ccc(NS(=O)(=O)c2cc(OCC(N)=O)c(C)cc2Cl)cc1,14,7.7,·,·,·,-1,14,·,·,-20
O=C(O)C1CCN(S(=O)(=O)c2ccc(Oc3ccccc3)cc2)CC1,-5,3.0,·,·,·,17,-4,·,·,·

# Part of the list above, bar-delimited:
canonical_smiles | T cruzi inh | RanGTP-Impb inh | rRNA inh HTS | rRNA inh HTS OD600 | rRNA inh HTS RFP | Calb FLC | Beta cell apopt | FGF22 binding | MLL AF4-AF9 inh | ALR inh
O=C(NCCc1cccs1)C1CC(c2cccc(F)c2)=NO1 (stereo not given) | -19 | -1.1 | 7 | 14 | 6.9 | 9 | -1 | i | -0.8 | -3
O=C1CC(C(=O)N(c2cccc(F)c2)C(C(=O)NC2CCCC2)c2ccccn2)CS1 (stereo not given) | 4 | -1.3 | · | · | · | 40 | -14 | · | · | -1

# Molecules listed so far containing a thiophene ring, fused or not (9):
SMILES,T cruzi inh,RanGTP-Impb inh,rRNA inh HTS,rRNA inh HTS OD600,rRNA inh HTS RFP,Calb FLC,Beta cell apopt,FGF22 binding,MLL AF4-AF9 inh,ALR inh
CCOC(=O)c1sc2nc(-c3ccccc3)ccc2c1N,3,30*,·,·,·,-3,-8,·,·,-1
Cc1cccc(C(=O)NC(C)C(c2cccs2)N2CCOCC2)c1 (stereo not given),-7,-0.9,7,1,2.1,-1,-3,i,-21,·
O=C(/C=C/c1cccs1)NCc1ccccc1,-8,-0.6,-6,8,-2.6,0,-5,i,2.3,-14
O=C(COC(=O)[C@@H]1CCCN1C(=O)c1cccs1)Nc1ccc(Br)cc1,·,·,-20,-29,-6.5,·,-5,i,-0.8,3
O=c1[nH]c(CSc2ncnc3sccc23)nc2ccccc12,-1,-2.1,5,11,-5.0,-10,-5,i,-0.6,-4
O=C(NNC(=S)Nc1ccc(OC(F)F)cc1)c1cc2c(s1)CCCC2,-30,0.8,·,·,·,0,2,·,·,36
CCO[C@@H]1OC(C(=O)N2CCCCCCC2)=C[C@H](c2csc3ccccc23)[C@H]1CCCO,1,-0.4,·,·,·,-6,2,·,·,-17
COc1ccc(C2=CC3=C(Br)C(=O)C(C)(OC(=O)c4cccs4)C(=O)C3=CO2)cc1 (stereo not given),-4,-1.7,-7,4,-6.3,-2,-8,i,-1.1,·
O=C(NCCc1cccs1)C1CC(c2cccc(F)c2)=NO1 (stereo not given),-19,-1.1,7,14,6.9,9,-1,i,-0.8,-3
